Screening results (PubChem)
hNpr1 antagonist = antagonists of human natriuretic peptide receptor Npr1; AID 1347048; hit rate 1.6% among 76,000; HEK293 hNpr1 GloSensor cGMP, ANP-stimulated luminescence; Potency, µM (highest dose often 46.3 µM), inactives show at the highest dose activity change, negative = inhibition, usual class: inhibitors; P16066; active = well fitted inhibition curve with a large enough effect; inconclusive = small, poorly fitted or top-dose-only effect; inactive = no such curve, though single readings can be large or run the other way;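 further: nearly all actives have a fitted effect of over 60% in size; nearly all hits also lower the signal before the agonist is added; a reference antagonist and vehicle were the controls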
Target sequence (P16066 whole entry, looked up): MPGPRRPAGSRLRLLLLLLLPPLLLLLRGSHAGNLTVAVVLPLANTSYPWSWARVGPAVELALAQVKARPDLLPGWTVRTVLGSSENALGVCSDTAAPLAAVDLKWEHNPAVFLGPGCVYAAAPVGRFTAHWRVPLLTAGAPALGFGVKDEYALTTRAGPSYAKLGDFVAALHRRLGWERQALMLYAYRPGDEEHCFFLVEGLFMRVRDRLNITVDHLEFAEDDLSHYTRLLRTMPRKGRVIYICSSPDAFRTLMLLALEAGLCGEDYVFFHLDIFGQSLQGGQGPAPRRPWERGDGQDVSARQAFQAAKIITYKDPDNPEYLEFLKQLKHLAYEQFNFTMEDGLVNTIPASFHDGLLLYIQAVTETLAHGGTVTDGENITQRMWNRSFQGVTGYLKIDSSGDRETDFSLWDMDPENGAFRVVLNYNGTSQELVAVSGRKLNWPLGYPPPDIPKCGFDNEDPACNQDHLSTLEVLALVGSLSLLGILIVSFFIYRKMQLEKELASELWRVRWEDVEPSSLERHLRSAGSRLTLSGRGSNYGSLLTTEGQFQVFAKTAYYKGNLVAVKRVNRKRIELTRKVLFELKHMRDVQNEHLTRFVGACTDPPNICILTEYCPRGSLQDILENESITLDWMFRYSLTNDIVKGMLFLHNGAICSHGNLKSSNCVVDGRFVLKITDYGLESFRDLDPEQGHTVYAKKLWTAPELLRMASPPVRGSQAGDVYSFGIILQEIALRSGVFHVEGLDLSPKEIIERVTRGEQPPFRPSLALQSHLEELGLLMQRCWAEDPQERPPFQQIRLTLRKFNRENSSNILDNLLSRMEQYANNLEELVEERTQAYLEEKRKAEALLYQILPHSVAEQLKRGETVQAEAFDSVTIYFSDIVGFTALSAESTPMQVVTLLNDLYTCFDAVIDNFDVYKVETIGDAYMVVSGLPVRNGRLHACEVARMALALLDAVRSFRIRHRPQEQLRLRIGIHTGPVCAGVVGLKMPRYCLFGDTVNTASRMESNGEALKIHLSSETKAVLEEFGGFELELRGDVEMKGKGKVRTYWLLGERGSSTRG
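Compound pre-incubated 30 min at room temperature on GloSensor-loaded HEK293 cells stably carrying hNpr1 and the pGS-40F cGMP biosensor. Stimulation uses hNppA at 0.1 nM final; luminescence is taken at baseline and 20 min post-agonist.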
Starred values were filed as active, the others as inactive; ? = inconclusive; & = joins results of further samples; [ ] = another dose, or the depositor's remark. On the % scale 0 is the no-effect control and ±100 the full control effect; potency means the concentration at half of the fitted maximal effect.

Preview (6 entries):
SMILES | hNpr1 antagonist
COc1cc(=O)n2c(c1C(=O)Nc1cc(C(F)(F)F)ccc1Cl)CCCC2 | -6%
COCCNC(=O)c1nc(-c2cc(Cl)cc(Cl)c2)c2ccccn12 | 9%&-14%
COc1ccc(C(=O)N2CCOC[C@H](Oc3cnccn3)C2)cc1 | 1%[70.6 µM]
C[S+](=O)([O-])N1CCC(Cn2ccc3c(N4CCOCC4)nc(-c4cccnc4)cc32)CC1 | -7%
CN(C)C[C@@H]1CN(S(C)(=O)=O)C[C@H]1NC(=O)Cc1c(F)cccc1Cl | 4%
O=C1CCN(C(=O)Cc2c[nH]c3ccccc23)CCCCCCN1 | -8%

All compounds of this part (from the top)
SMILES | hNpr1 antagonist
COc1cc(=O)n2c(c1C(=O)Nc1cc(C(F)(F)F)ccc1Cl)CCCC2 | -6%
COCCNC(=O)c1nc(-c2cc(Cl)cc(Cl)c2)c2ccccn12 | 9%&-14%
COc1ccc(C(=O)N2CCOC[C@H](Oc3cnccn3)C2)cc1 | 1%[70.6 µM]
C[S+](=O)([O-])N1CCC(Cn2ccc3c(N4CCOCC4)nc(-c4cccnc4)cc32)CC1 | -7%
CN(C)C[C@@H]1CN(S(C)(=O)=O)C[C@H]1NC(=O)Cc1c(F)cccc1Cl | 4%
O=C1CCN(C(=O)Cc2c[nH]c3ccccc23)CCCCCCN1 | -8%
O=C1CC(c2ccccc2)N(C(=O)CNC(=O)c2ccncc2)CCCCCN1 (configuration not stated) | 0%
CC(C(=O)N1CCc2onc(-c3cccc4ccccc34)c2C1)n1ccnc1 (configuration not stated) | -5%
COc1cc2c(cc1OC)C(CNC(=O)CC(C)C)N(C(=O)Nc1cccc(F)c1)CC2 (configuration not stated) | 1%
Cc1ncccc1C(=O)N1CCC2(CCC(=O)N(CC3CC3)CC2)CC1 | -6%
Cc1ccc(C(=O)N2CCC3(CC2)N=C(c2ccc(C)cc2)NO3)cc1 | -24%
C[C@H]1[C@@H]2[C@@H](O)[C@H]([C@H](C)C(=O)N3CCCCC3)CC[C@@]2(C)CC[C@@H]1NC(=O)c1cncnc1 | 3%
COc1cccc(NC(=O)N[C@H]2C[C@@H](C(=O)N[C@H](Cc3ccccc3)C(N)=O)N(C(=O)C=C(C)C)C2)c1 | 3%
CCCC(=O)N1CCC(N2CC3CC(C2)[C@H]2CCCC(=O)N2C3)CC1 (some centres not stated) | -3%
NC(=O)[C@@H]1CN(C(=O)c2ccccc2F)C[C@H]1COc1ccccc1 | 9%
Cn1cccc1C(=O)N[C@@H]1CN(c2ncccn2)C[C@H]1CO | 0%
COc1ccc(C2Cn3nnc(-c4noc(-c5cccnc5)n4)c3CO2)cc1 (configuration not stated) | 9%
Cc1ccc(CN2CCN(c3ncnc4onc(C)c34)CC2CCO)cc1 (configuration not stated) | ?
CCOc1cccc(-c2noc(-c3nnn4c3COC(c3ccc(C)cc3C)C4)n2)c1 (configuration not stated) | 5%
O=C(NCc1ccccc1)C1CCN(C(=O)c2ncn3c2COC(c2ccc(F)cc2)C3)CC1 (configuration not stated) | 5%

A different layout for some results above.
SMILES	hNpr1 antagonist
O=C1CC(c2ccccc2)N(C(=O)CNC(=O)c2ccncc2)CCCCCN1 (configuration not stated)	0%
CC(C(=O)N1CCc2onc(-c3cccc4ccccc34)c2C1)n1ccnc1 (configuration not stated)	-5%
COc1cc2c(cc1OC)C(CNC(=O)CC(C)C)N(C(=O)Nc1cccc(F)c1)CC2 (configuration not stated)	1%
Cc1ncccc1C(=O)N1CCC2(CCC(=O)N(CC3CC3)CC2)CC1	-6%
Cc1ccc(C(=O)N2CCC3(CC2)N=C(c2ccc(C)cc2)NO3)cc1	-24%
C[C@H]1[C@@H]2[C@@H](O)[C@H]([C@H](C)C(=O)N3CCCCC3)CC[C@@]2(C)CC[C@@H]1NC(=O)c1cncnc1	3%
COc1cccc(NC(=O)N[C@H]2C[C@@H](C(=O)N[C@H](Cc3ccccc3)C(N)=O)N(C(=O)C=C(C)C)C2)c1	3%

Continuation:
SMILES | hNpr1 antagonist
Cc1cc(C(=O)N2CCCn3cc(-c4ccccc4F)nc32)nn1C | 1%
Cc1ccc(CNC(=O)C2(CCO)CCN(c3ncccn3)C2)o1 (configuration not stated) | 2%
O=C(NCc1noc(-c2cccs2)n1)[C@H]1CNC[C@H](C(=O)N2CCCC2)C1 | 3%
CCN1C(=O)C2(CCN(S(=O)(=O)c3ccc(C(F)(F)F)cc3)CC2)c2ccccc21 | -1%
Cn1nccc1C(=O)N1CCC(Nc2cccnc2)C1 (configuration not stated) | -1%
Cc1ccc(-c2nc(CN3CCCC3=O)no2)cc1 | 1%
O=C(c1ccn[nH]1)N1CC(c2ncc3c(-c4cccc(C(F)(F)F)c4)nccn23)C1 | -1%[70.6 µM]
COC[C@@H]1CN(C(=O)c2cc(F)ccc2F)C[C@H]1c1ccncc1 | 3%
CN1CCc2[nH]cnc2C12CCN(C(=O)c1cc(=O)[nH]c3ccccc13)CC2 | 13%
CCSc1nc(CC(=O)NCc2ccc(S(N)(=O)=O)cc2)cs1 | 4%
O=C(Cc1ccc(F)cc1)N1CC(c2noc(C3CCCN3CC3CC3)n2)C1 (configuration not stated) | 5%
O=C(NC1CCCCCCC1)C1CCN(C(=O)c2ncn3c2COC(c2ccc(Cl)cc2)C3)CC1 (configuration not stated) | 4%
O=C(NCc1ccccc1)c1cnc2n1CCN(Cc1ccccc1F)CC2 | -8%[70.6 µM]
CNC(=O)[C@@H]1C[C@H](Oc2ccccc2)CN1C(=O)c1cc2ccccc2[nH]1 | 0%
CCc1noc(-c2cn(C3CCCN(C(=O)c4ccc(F)cc4)C3)nn2)n1 (configuration not stated) | 1%
COc1cccc(C(=O)N2CCCC(c3[nH]ccc3C(N)=O)C2)c1OC (configuration not stated) | 4%
COCCn1c(CO)nnc1C1CC(NC(=O)c2ccc(F)cc2F)C1 (configuration not stated) | 8%
COCc1nc(NCc2sc(COC)nc2C)cc(C2CC(N)C2)n1 (configuration not stated) | 7%
COCC1(CNC(=O)c2nc3ccccc3[nH]2)C[C@@H](O)[C@@H](O)C1 (some centres not stated) | 0%[70.6 µM]
COC1CCC(C(=O)N2CCCn3nc(C)c(-c4ccccc4C(C)C)c32)CC1 (configuration not stated) | -10%[70.6 µM]

Next section (two carried over from the part before).
SMILES | hNpr1 antagonist
COCC1(CNC(=O)c2nc3ccccc3[nH]2)C[C@@H](O)[C@@H](O)C1 (some centres not stated) | 0%[70.6 µM]
COC1CCC(C(=O)N2CCCn3nc(C)c(-c4ccccc4C(C)C)c32)CC1 (configuration not stated) | -10%[70.6 µM]
CCC[C@@H]1CN(C(=O)c2cccc(N3CCS(=O)(=O)CC3)c2)C[C@H]1N(C)C | 3%
O=C([C@@H]1C[C@H](Oc2cccnc2)CN1C(=O)NC1CCCCC1)N1CCCC1 | 0%
Cc1nn(C)c(C)c1CCN(C)C(=O)C12CCCC=C1N(C1CCCC1)C(=O)CC2 (configuration not stated) | 0%
Cc1n[nH]c(C)c1CNC(=O)CCC1CCCN(S(=O)(=O)c2ccccc2F)C1 (configuration not stated) | 2%
O=C(CN1CC2CC(C1)[C@H]1CCCC(=O)N1C2)NCc1ccccn1 (some centres not stated) | -10%
O=C(NC1CCCC1)N1CCCCC1c1nc(-c2ccncc2)n[nH]1 (configuration not stated) | 4%
Cc1ccc(NC(=O)N2CCC(Oc3ncccc3C(=O)N3CCOCC3)C2)c(Cl)c1 (configuration not stated) | -4%
O=C1CCN(S(=O)(=O)c2ccccc2)CCCN(Cc2ccncc2F)CCN1 | 1%
CC(C)Oc1ccc2c(NC(=O)Cn3cccnc3=O)nn(CC(F)(F)F)c2c1 | -1%
CNC(=O)[C@@H]1CN(Cc2ccccc2OC(F)(F)F)C[C@H]1CO | -17%
Cc1ccc2c(C(=O)N3CCCCCC3)cc(NC(=O)C3CC3)cc2n1 | 1%
CN(c1ccccc1)c1cc(=O)c2ccnc(NCCc3ccccn3)c2o1 | 1%[70.6 µM]
O=C1NC2(CCN(S(=O)(=O)c3ccccc3)CC2)Oc2ccccc21 | -20%
O=C(NCCc1ccccc1)C1CCC(=O)N(CCCN2CCOCC2)C1 (configuration not stated) | 4%
O=C(NCCCc1ccccn1)c1ccc(C2CCCNC2)cc1 (configuration not stated) | -1%
CCn1ccc(C(=O)N2CC(N(C3CCOCC3)S(C)(=O)=O)C2)n1 | 3%
COc1cccc(S(=O)(=O)NCC2Cn3cccc3C(=O)N2C)c1 (configuration not stated) | 1%
COCC(=O)NC1CCC12CCN(C(=O)COC)CC2 (configuration not stated) | 2%
Cc1cnc(C(=O)N2CCOCCNC(=O)[C@@H]3CCC[C@@H]32)cn1 | 1%
Cc1ccc(S(=O)(=O)N2CCC(CCC(=O)NC3CC3)CC2)cc1 | -1%
O=C(NCC1Cn2cccc2CN1Cc1ccccc1)C1CC1 (configuration not stated) | 3%
CCC(CC)C(=O)Nc1ccc([C@@H](O)[C@H]2COCC(=O)N2CC)cc1 | -3%[70.6 µM]
O[C@H]1[C@H](NCc2ccccc2)[C@H]2CO[C@H](O2)[C@@H]1Sc1ccccc1 | 2%[70.6 µM]
Cc1cc(C)cc(C(=O)N2CCCN(C)c3ccccc32)c1 | -1%
NC(=O)Cc1c[nH]c2ncc(-c3cccc(N4CCOCC4)c3)cc12 | 2%[70.6 µM]
CCC(CC)C(=O)N1CCC(OC2CCN(C)CC2)CC1 | -2%
O=C1N[C@H](CCC(=O)N2CCN(CCc3ccccn3)CC2)C(=O)Nc2ccccc21 | 6%
Cc1cc(C[C@@H]2COC[C@@H]2NC(=O)CN(C)Cc2cccnc2)on1 | 6%
O=C(Nc1cccc(F)c1)Nc1ccc(=O)n2c1[C@@H]1C[C@@H](CN(C(=O)COc3ccccc3)C1)C2 | -1%
O=c1[nH]c(C2CCN([S+](=O)([O-])c3cccc(C(F)(F)F)c3)CC2)nn1-c1ccc(Cl)cc1 | 19%
O=C(NCC1Cn2cccc2C(=O)N1Cc1ccccc1)c1cc(F)ccc1F (configuration not stated) | ?
COCCOCc1nc(C2CCCN2C(=O)Nc2ccc(F)cc2F)no1 (configuration not stated) | -2%
Cc1ccc(S(=O)(=O)N(C)C2CCc3ccccc32)cc1 (configuration not stated) | -1%[70.6 µM]
O=S(=O)(N[C@H]1CO[C@H]2[C@@H]1OC[C@@H]2n1nnnc1-c1ccc2c(c1)OCO2)c1ccc2ccccc2c1 | -4%
COCCNC(=O)[C@@H]1C[C@@H](O)CN1C1CCN(C(=O)c2ccccc2OC)CC1 | 10%
CC(C)C[C@H](CO)NC(=O)C[C@@H]1c2nc(-c3cccnc3)sc2C[C@@H]2[C@](C)(CO)[C@H](O)CC[C@]21C | -4%
CC1(C)[C@H]2CC[C@@H](CNC(=O)c3cccc4[nH]ccc34)[C@@H]1C2 | -3%[70.6 µM]
O=C(Nc1ccc2ncnc(N3CCCCC3)c2c1)c1ccc(F)cc1 | -30%
Cc1ccc(OCC(=O)N2CC3CC(C2)[C@H]2CCCC(=O)N2C3)cc1 (some centres not stated) | 0%
COC1CCOC2(CCN(C(=O)CCc3ccccc3)CC2)C1 (configuration not stated) | 0%
Cc1ccsc1-c1[nH]nc2ncc(-c3ccccc3F)nc12 | -5%[70.6 µM]
O=C(NCc1ccco1)[C@@H]1Cc2nc[nH]c2CN1Cc1ccc(C(F)(F)F)cc1 | -15%[70.6 µM]
Cc1ccc(O[C@H]2CCOC[C@H]2NC(=O)c2cc(C#N)cn2C)cn1 | -1%
O=C(Nc1ccccc1)N1CCC(N2CC(OCC3CC3)C23CCOCC3)CC1 (configuration not stated) | 9%
Cc1cc(C)n2nc(C(=O)N[C@H](c3ccccn3)C3CC(O)C3)nc2n1 (some centres not stated) | 3%
CCOc1ccccc1C(=O)N1CCC(Oc2nccnc2N(C)C)C1 (configuration not stated) | 0%
COC1CCN(CC2CCCCCN2C(=O)c2ccccc2)CC1 (configuration not stated) | -2%
CCn1ncc(NC(=O)Cn2ncc3cc(-c4ccc(C(=O)N(C)C)cc4)ccc32)n1 | -12%
COc1ccc(CN2C(=O)[C@@H]3C[C@@H](O)CN3C3(CN(Cc4cnc5ccccc5c4)C3)C2=O)cc1 | 1%
CC(C)CCNC(=O)N1CCCC(Cn2c(C3CC3)nc3cccnc32)C1 (configuration not stated) | 0%
Cc1nn(Cc2ccccc2)c(C)c1[C@@H]1C=C[C@@H](NC(=O)NC2CCCCC2)C1 | -22%[70.6 µM]
Cc1ccc(C2Cn3nnc(C(=O)N4CCC(C(=O)NC5CCCCC5)CC4)c3CO2)cc1 (configuration not stated) | 0%
CCOc1cc(CN2CCC(C(Cc3ccccc3F)N(C)C(=O)c3cccs3)CC2)ccc1O (configuration not stated) | -14%
Cc1noc(-c2cn(C3CCN(C(=O)c4ccc(Cl)cc4)C3)nn2)n1 (configuration not stated) | -10%
CN1CC(=O)N(c2ccc(Cl)cc2)Cc2c1ncnc2N1CCc2ccccc2C1 | -7%
COCCOC1CCOC2(CCN(C(=O)c3ccccn3)CC2)C1 (configuration not stated) | 10%
COCCNC(=O)[C@H]1C[C@H](Oc2cccnc2)CN1C(=O)NCC(C)C | 1%
O=S(=O)(c1ccccc1)N1CC(F)(F)C[C@H]1c1nc(C2CC2)no1 | 4%
CC(=O)Nc1cccc(-c2nnc3n2CCCC3)c1 | 8%
O=C(NC1CC(c2nnc(CO)n2C2CC2)C1)c1cccn2cnnc12 (configuration not stated) | 15%
Cc1cccc(OC2CN(C(=O)c3ccc(CCC(C)(C)O)cc3)C2)c1 | -7%
COc1cccc(CN2CCc3nc(N4CCN(C)CC4)[nH]c(=O)c3CC2)c1 | 0%

This is a subset; count on the stated rates, not on these rows.
